miR-21 FLuc: qHTS Assay for Modulators of miRNAs and/orActivators of miR-21; HeLa miR-21 FLuc reporter, luciferase, 48 h; Potency, µM (highest dose often 38.3 µM), without a hit: at the top dose reporter change, positive = more light; 340,000 tested, under 10 active; AID 2288, 2010; active = well fitted rising curve with a large enough effect; inconclusive = small, poorly fitted or top-dose-only effect; inactive = no such curve, though single readings can be large or run the other way;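 further: % of control where 0% means no effect; miR-21 action dims this reporter so a rising signal means less miR-21 action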
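HeLa miR-21-FLuc reporter line, endogenous miR-21; 2000 cells/well in DMEM/10% FBS; compound titration up to ~40uM final, 48 h, 37 degree Celsius; luciferase detection reagent, 15 min lysis, CCD luminescence.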
Rango complex inh: qHTS Assay for Inhibitors of Rango (Ran-regulated importin-beta cargo) - Importin beta complex formation; Importin subunit beta-1 (Homo sapiens), Q14974; Rango CFP/YFP FRET sensor + importin beta, 45 min; Potency, µM (series often up to 92.2 µM), inactives show at the highest dose inhibition of complex formation; 340,000 tested, 0.031% active; AID 540263, 2011; active = rising FRET ratio curve, often small or poorly fitted; inconclusive = mostly compound fluorescence or quenching in the first reads; inactive = flat curves in all reads;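 further: potency means the concentration at half of the fitted maximal effect; 0% = DMSO wells and 100% = buffer wells lacking importin beta; nearly all actives have a fitted effect of over 15% in size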
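FRET biosensor Rango (snurportin 1 IBB between N-terminal EYFP and C-terminal Cerulean), 50 nM in PBS/1 mM DTT/0.02% Tween-20/0.1% BSA, preincubated 5 min RT with compound; 0.125 microM importin beta added, 45 min RT, CFP/YFP FRET ratio read.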
GLA inh pH 4.5: qHTS Assay for Inhibitors of Human alpha-Galactosidase at pH 4.5 | Alpha-galactosidase A (Homo sapiens), P06280 | purified enzyme, 4-MU-alpha-Gal fluorescence, pH 4.5 | activity change, negative = inhibition, % at 105 µM | 230,000 tested, under 10 active; inconclusive = small, poorly fitted or top-dose-only inhibition, or a rising curve; inactive = flat fitted curve, though single readings scatter; no compound was filed as active;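 further: 0% = full activity with enzyme and -100% = basal without enzyme; dose as in the result columns while the protocol names 77 µM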
Target sequence (P06280 whole entry, looked up): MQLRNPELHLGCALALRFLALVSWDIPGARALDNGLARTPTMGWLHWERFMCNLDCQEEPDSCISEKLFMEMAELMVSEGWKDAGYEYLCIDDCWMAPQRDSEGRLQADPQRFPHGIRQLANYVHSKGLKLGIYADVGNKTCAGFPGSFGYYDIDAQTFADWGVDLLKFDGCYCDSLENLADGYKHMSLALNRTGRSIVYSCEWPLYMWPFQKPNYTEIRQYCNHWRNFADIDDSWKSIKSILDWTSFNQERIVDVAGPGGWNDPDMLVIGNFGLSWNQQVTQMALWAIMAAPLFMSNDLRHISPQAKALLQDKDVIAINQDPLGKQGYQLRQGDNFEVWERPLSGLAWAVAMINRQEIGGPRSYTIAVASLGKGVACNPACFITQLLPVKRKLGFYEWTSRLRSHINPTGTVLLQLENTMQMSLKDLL
Rango release inh: qHTS Assay for Inhibitors of RanGTP induced Rango (Ran-regulated importin-beta cargo) - Importin beta complex dissociation; 340,000 tested, 0.071% active; Snurportin-1 (Homo sapiens) + GTP-binding nuclear protein Ran (Homo sapiens) + Importin …; Potency, µM (doses to about 46.1 µM), for the others: at the highest dose activity change, negative = inhibition; Biochemical FRET Rango-importin beta, RanGTP-induced dissociation; active means falling FRET ratio curve, often poorly fitted, with flat reads before Ran was added; inconclusive means other falling curves, or compound fluorescence or quenching; inactive means flat or rising ratio curve;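 further: potency means the concentration at half of the fitted maximal effect; % of control where 0% means no effect; nearly all actives have a fitted effect of over 45% in size; -100% = wells without RanGTP and RCC1; the record marks most hits as doubtful in a second field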
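Rango FRET biosensor (snurportin-1 IBB flanked by N-terminal EYFP and C-terminal CFP10) at 0.1 uM, with 0.25 uM importin beta in PBS, 1mM DTT, 0.02% Tween-20, 0.1% BSA. 0.6 uM Ran, 2mM GTP and 0.2 uM RCC1 were then added for 45 min at room temperature. Inhibition read as loss of FRET rise.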
Active calls of the source: *; ? = inconclusive; · = not tested or not shown; & = joins results of further samples. A portion of the library (hit frequency here may not be typical).

Rango complex inh	Rango release inh	miR-21 FLuc	GLA inh pH 4.5	Structure
0.5%	-1%	1%	·	COc1ccc(-n2cc(-c3ccccc3)c3c(NCCOCCO)ncnc32)cc1
0.0%	16%	-6%	-4	C=CCNCC#CCOc1ccc(OC)cc1
0.4%	-11%	0%	·	COc1cc2c(cc1OC)C(C)N(C(=O)c1sccc1C)CC2 (stereo not given)
-6.7%	-4%	-4%	-6	CC1SC(=NC(=O)c2ccco2)NC1=O (stereo not given)
-3.5%	-7%	·	·	O=C(COC(=O)c1ccc([N+](=O)[O-])s1)Nc1ccc(F)cc1
4.0%	8%	-35%	5	COc1ccc(-c2nc3cc(NC(=S)NC(=O)Cc4ccccc4)ccc3o2)cc1
-2.9%	7%	10%	·	CC(=O)N1CCSc2ccc(S(=O)(=O)NCc3ccccc3)cc21
1.7%	0%	-14%	·	Cn1ccc(C(=O)N/N=C/c2ccncc2)n1
-3.8%	13%	-1%	-3	CCCn1nc2cc(C(=O)NCCc3ccc(C)cc3)ccc2c1OCC
-0.4%	-7%	?	-15	CC(C)Cn1c(N)c(C(=O)COC(=O)CC23CC4CC(CC(C4)C2)C3)c(=O)n(C)c1=O
2.7%	-5%	-18%	8	Cc1ccc(NC(=O)CCn2cccc2)cc1
0.8%	-12%	11%	-22	Cc1cc(OC2CCCCC2)nc(NCc2ccccc2)n1
0.5%	-10%	29%	·	COc1ccc2nc(C)cc(N3CCN(c4ccccc4)CC3)c2c1
?	4%&10%	-7%	-6	Cc1cc2nc(/N=C(\N)NC(=O)N3c4ccccc4Sc4ccccc43)nc(C)c2cc1C
-2.4%	-16%	-7%	-3	Cc1nc(N(C)Cc2ccccc2)c2nnn(Cc3ccccc3)c2n1
37µM*	-1%	-6%	-3	CCN(CC)C(=O)Cn1cc(C(=O)C(=O)N2CC=C(c3ccccc3)CC2)c2ccccc21

Reprinted from the part before: 6 compounds, then new ones.
Rango complex inh	Rango release inh	miR-21 FLuc	GLA inh pH 4.5	Structure
2.7%	-5%	-18%	8	Cc1ccc(NC(=O)CCn2cccc2)cc1
0.8%	-12%	11%	-22	Cc1cc(OC2CCCCC2)nc(NCc2ccccc2)n1
0.5%	-10%	29%	·	COc1ccc2nc(C)cc(N3CCN(c4ccccc4)CC3)c2c1
?	4%&10%	-7%	-6	Cc1cc2nc(/N=C(\N)NC(=O)N3c4ccccc4Sc4ccccc43)nc(C)c2cc1C
-2.4%	-16%	-7%	-3	Cc1nc(N(C)Cc2ccccc2)c2nnn(Cc3ccccc3)c2n1
37µM*	-1%	-6%	-3	CCN(CC)C(=O)Cn1cc(C(=O)C(=O)N2CC=C(c3ccccc3)CC2)c2ccccc21
0.8%	-3%	-3%	-1	CC1CN(C(=S)NC(=O)c2ccc([N+](=O)[O-])cc2)CC(C)O1 (stereo not given)
5.4%	2%	?	·	CC(=O)c1cccc(NC(=O)c2ccc(NC(=O)CCS(=O)(=O)c3cccs3)cc2)c1
6.2%	22%	3%	·	COc1cc(/C(C)=N/N2CCN(Cc3ccc(C)cc3)CC2)ccc1O
0.9%	2%	-6%	·	CSc1ccccc1C(=O)NCCSc1ccc(C)cc1
2.9%	12%	-32%	-4	Cc1cc(C(=O)COC(=O)c2ccc(Br)o2)c(C)n1C
4.5%	-27%	1%	1	CCOc1ccc(NC(=O)C2CCN(S(=O)(=O)c3c(C)n[nH]c3C)CC2)cc1
0.4%	-2%	-2%	-1	CC1CCCC(n2cnc3cc(C(=O)O)ccc32)C1C (stereo not given)
2.6%	-15%	0%	4	CSc1nsc(SCC(=O)Nc2c(C)n(C)n(-c3ccccc3)c2=O)n1
-3.2%	-2%	-17%	4	Cc1cc2cc3c(cc2nc1SCc1ccccn1)OCCO3
-0.5%	-5%	-3%	-7	CCOC(=O)C1(Cc2ccc(Cl)cc2)CCN(C(=O)c2cnc(C)cn2)CC1
0.5%	4%	·	·	COc1ccc(S(=O)(=O)N2CCOCC2)cc1NC(=O)C1CCCCN1S(=O)(=O)c1ccccc1 (stereo not given)
-4.5%	17%	-27%	-2	Cc1ccc(CCSc2ccc(C(C)C)cc2)cn1
1.3%	-13%	·	·	COc1ccc(NC(=O)CSc2nnc(C)s2)cc1S(=O)(=O)N1CCOCC1
-3.0%	-22%	-9%	25	CC(C)CC(C(=O)Oc1ccc2c3c(c(=O)oc2c1)CCC3)N1C(=O)c2ccccc2C1=O (stereo not given)
-1.8%	3%	1%	1	Cc1cccc(N2CCN(C3=NC(=O)C(Cc4ccccc4)S3)CC2)c1 (stereo not given)
-1.9%	-10%	0%	1	Cc1ccccc1CCNC(=O)C1CCN(S(=O)(=O)c2ccc(-n3cnnn3)cc2)CC1
-1.3%	19%	-2%	-1	Cc1ccc(NC(=O)CSc2nnc(CNC(=O)c3c(F)cccc3Cl)o2)cc1
-1.8%	0%	-4%	·	CCN(CC)c1ccc(/C=N/NC(=O)CNC(=O)c2ccc3c(c2)OCCO3)cc1
-0.2%	10%	·	·	CCN1C[C@@H]2[C@@H]3C(=O)N(C)C(=O)[C@@H]3[C@](CC)(C1=O)N2C(=O)c1ccc(F)cc1
6.7%	0%	-8%	3	Cc1ccc(Cl)cc1NC(=S)N(CCCN1CCOCC1)Cc1ccccn1
2.3%	2%	9%	·	O=C(COc1ccc(S(=O)(=O)N2CCOCC2)cc1Cl)NC1CC1
0.5%	0%	4%	-3	CCOC(=O)N1CCC(NC(=O)C2CCN(S(=O)(=O)c3ccc4c(c3)oc(=O)n4C)CC2)CC1
6.1%	10%	-2%	-4	O=C(COC(=O)[C@H](Cc1c[nH]c2ccccc12)NC(=O)c1cccs1)NCc1ccccc1
0.2%	-7%	1%	-3	Cc1ccc(N2C(=O)CN(Cc3sccc3C)C2=S)cc1C

Complete entries as entered above. Order of screens: Rango complex inh | Rango release inh | miR-21 FLuc | GLA inh pH 4.5
Cc1ccc(N2C(=O)CN(Cc3sccc3C)C2=S)cc1C is listed as 0.2% | -7% | 1% | -3
CCN(CC)c1ccc(/C=N/NC(=O)CNC(=O)c2ccc3c(c2)OCCO3)cc1 is listed as -1.8% | 0% | -4% | ·
Cc1ccc(Cl)cc1NC(=S)N(CCCN1CCOCC1)Cc1ccccn1 is listed as 6.7% | 0% | -8% | 3
CCOC(=O)N1CCC(NC(=O)C2CCN(S(=O)(=O)c3ccc4c(c3)oc(=O)n4C)CC2)CC1 is listed as 0.5% | 0% | 4% | -3

Other records follow.
Rango complex inh	Rango release inh	miR-21 FLuc	GLA inh pH 4.5	Structure
0.7%	-10%	-30%	-9	O=C(c1ccccc1)c1ccc(Oc2ncccn2)cc1
-3.6%	16%	2%	-3	CCOC(=O)C(Cc1c(F)cccc1F)(NC(C)=O)C(=O)OCC
5.5%	3%	·	·	O=C(NN1C(=O)NC2(CCCCC2)C1=O)c1cc(F)cc(F)c1
1.6%	-8%	0%	·	Cc1ccc(NC(=O)CSc2nn3c(=O)c(C)nnc3s2)cc1Cl
0.4%	0%	·	·	N#Cc1ccc(C(=O)NC(=S)N2CCN(C=O)CC2)cc1
-0.2%	1%	0%	-3	Cc1ccc(NC(=O)COC(=O)CCc2ccc(S(=O)(=O)N3CCOCC3)cc2)cc1F
3.6%	1%	·	·	N#Cc1ccc(C(=O)N2CCN(S(=O)(=O)c3ccc(Cl)s3)CC2)cc1
-2.6%	24%	-6%	0	Cc1cc(C)c2cc(CN(Cc3cccs3)Cc3nnnn3CC3CCCO3)c(=O)[nH]c2c1 (stereo not given)
·	·	-3%	5	COc1nc(N/N=C/c2ccc(-c3cccc([N+](=O)[O-])c3)o2)nc(N2CCOCC2)n1
-2.0%	-19%	-3%	4	Cc1cc(=O)n(C2CCS(=O)(=O)C2)[nH]1 (stereo not given)
-1.1%	1%	-5%	-5	Cc1cc(C)nc(NS(=O)(=O)c2ccc(NC(=O)c3ccco3)cc2)n1
4.3%	5%	-2%	·	COc1cccc(C2C(C#N)=C(N)N(N(C)C)C3=C2C(=O)CC(C)(C)C3)c1 (stereo not given)
-2.9%	-13%	0%	-6	COc1cc(CCC(=O)OCC(=O)Nc2ncc(Cl)cc2Cl)cc(OC)c1OC
-2.6%	-5%	·	·	O=C(Cn1cc(Br)ccc1=O)Nc1ccc2c(c1)OCO2
3.1%	-2%	-6%	-1	CC1CCCCN1CC(O)COCCC12CC3CC(CC(C3)C1)C2 (stereo not given)
-1.5%	-2%	-26%	·	CC12CCC(=O)C=C1CCC1C2C(O)CC2(C)C1CCC2(O)C(=O)CO (stereo not given)
2.1%	0%	4%	6	COc1ccc(NC(=O)CN2CCN(C(=S)NC3CCCC3)CC2)cc1
-4.8%	8%	-16%	3&2	CC(=O)N1CC=CC1(CC(C)C)C(=O)NCc1cc(F)cc(C(F)(F)F)c1 (stereo not given)
3.2%	2%	0%	-15	Cc1ccc(NC(=S)N2CCCC(c3nc4ccc(C)cc4[nH]3)C2)c(C)c1 (stereo not given)
-0.6%	0%	·	·	c1ccc(-c2nnc3nc(N4CCCCC4)nc(N4CCCCC4)n23)cc1
·	·	-3%	-5	CCCCN(CCCC)CCNC(=O)Cc1nc2c(c(=O)[nH]c(=O)n2C)n1C
-1.2%	-19%	-1%	1	CCOC(=O)c1c(NC(=O)c2cccnc2)sc(C)c1C
1.8%	-6%	1%	·	O=C(CCN1CCN(Cc2ccccc2)CC1)NNC(=O)Nc1cccc(Cl)c1
0.0%	-7%	0%	0	CC1CN(C(=O)c2cccc(C(=O)N3CC(C)OC(C)C3)c2)CC(C)O1 (stereo not given)
?	?	-1%	·	N#C/C(=C(/O)c1ccc(Br)s1)c1nc2ccccc2[nH]1
-2.3%	-11%	-5%	-2	Cc1cc(=O)n(-c2ccc(C(=O)O)cc2)[nH]1
-3.6%	-18%	-60%	-1	COc1ccccc1NC(CC(=O)c1ccccc1)C(=O)OCC(=O)c1ccc(C)c(C)c1 (stereo not given)
0.1%	-8%	7%	-6	CCOC(=O)C1CCN(S(=O)(=O)c2ccc(NC(C)=O)c(Cl)c2)CC1
-2.0%	-4%	0%	·	COc1ccc(NS(=O)(=O)c2cc3c(cc2C)N(C)CCO3)c(OC)c1
8.2%	6%	-55%	3	O=S(=O)(/N=C(/Nc1ccccn1)c1ccc(Cl)cc1)c1ccc(Cl)cc1
-2.1%	31%	-3%	·	CC(C)N(CCCNC(=O)Cn1c(=O)c2cccn2c2ccccc21)Cc1ccccc1
-0.9%	-13%	0%	·	COCCN(C(=O)CCC(=O)Nc1nccs1)C(C(=O)NC(C)(C)C)c1ccc(C)cc1 (stereo not given)
1.8%	-24%	·	·	O=C(Cn1cnc2ccccc2c1=O)NNC(=O)c1cccc([N+](=O)[O-])c1
0.0%	1%	4%	·	O=C(COC(=O)c1cccnc1)Nc1cccc2ccccc12
-0.7%	5%	4%	-9	CC(=O)Nc1ccc(NC(=O)CN(C)CC(=O)Nc2ccccc2Br)cc1
-0.3%	?	·	·	CC(OC(=O)C1=COCCO1)C(=O)Nc1ncc(Cl)cc1Cl (stereo not given)
-1.3%	-9%	-3%	4	CCOc1ccc(C(=O)CCNC(Cc2cnc[nH]2)C(=O)O)cc1 (stereo not given)
-2.9%	0%	·	·	COc1ccccc1N(C)S(=O)(=O)c1ccc(C(=O)N2CCC2)cc1
2.6%	1%	7%	0	CCO[C@H]1OC(C(=O)N2CCCCCCC2)=C[C@@H](c2ccc(C(F)(F)F)cc2)[C@@H]1CCCO
?	-25%	0%&-9%	·	Cc1ccc(CNC(=O)CN(c2ccc(C)cc2)S(=O)(=O)c2c(C)nn(C)c2C)cc1

Compound activity: PubChem, National Center for Advancing Translational Sciences (NCATS)
